Compound activity deposited in PubChem by several laboratories.
AF4-AF9 inh = inhibitors of AF4 peptide binding to AF9, primary screen, biochemical, AlphaScreen, biotin-AF4 peptide, FLAG-AF9, single point. inhibition, % at 10 µM. AID 651704, 2012. actives 0.47% (n = 350,000). Protein AF-9 (Homo sapiens), P42568;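 active = every replicate reaching a set inhibition limit, whatever the replicate mean, cut at about 25% in these data; inconclusive = mean inhibition reaches that limit but some replicates miss it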;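 also: 0% = plate neutral control median and 100% = total signal loss; the record names both 10 and 1 µM as test concentration; the first replicate is given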
Target sequence (P42568 whole entry, looked up): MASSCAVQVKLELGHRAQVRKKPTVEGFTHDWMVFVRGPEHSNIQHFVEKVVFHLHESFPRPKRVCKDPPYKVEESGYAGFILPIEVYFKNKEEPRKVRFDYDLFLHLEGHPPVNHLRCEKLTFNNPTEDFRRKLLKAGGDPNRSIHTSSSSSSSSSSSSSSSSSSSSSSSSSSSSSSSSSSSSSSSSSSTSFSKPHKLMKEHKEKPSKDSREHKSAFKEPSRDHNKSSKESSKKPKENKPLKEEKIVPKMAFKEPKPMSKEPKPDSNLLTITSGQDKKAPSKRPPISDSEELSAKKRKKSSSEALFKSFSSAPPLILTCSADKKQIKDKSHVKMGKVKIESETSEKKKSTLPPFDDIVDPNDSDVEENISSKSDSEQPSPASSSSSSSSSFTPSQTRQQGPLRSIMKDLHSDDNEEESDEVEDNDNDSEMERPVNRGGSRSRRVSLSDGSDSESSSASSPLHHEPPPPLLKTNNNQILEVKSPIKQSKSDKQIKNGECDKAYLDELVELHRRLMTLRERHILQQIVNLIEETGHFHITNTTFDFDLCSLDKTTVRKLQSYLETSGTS
Calb FLC = C. albicans growth inhibition with fluconazole, primary screen, CaCi-2 strain, Alamar Blue fluorescence | C. albicans CaCi-2 (fluconazole-resistant clinical isolate) + fluconazole, 48 h | growth inhibition, % (no concentration beside the values) | actives 0.57% (n = 300,000);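 active = most replicates above 75%; inconclusive = exactly half above 75%; inactive = most below 75%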;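 also: all wells also contain fluconazole at 8 µg/ml as a sub-toxic cotreatment; 0% = median of DMSO wells and 100% = median of geldanamycin control wells; wells of about 8 µL received 7.5 nL stock; the first replicate is given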
Beta apoptosis = inhibitors of cytokine-induced beta cell apoptosis, primary screen, luminescence; INS-1E cytokine-induced death, ATP luminescence, 48 h; percent of positive-control rescue, neutral wells zero; protection from apoptosis, % (test concentration not listed); actives 0.8% (n = 300,000); AID 435005, 2010;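 active = all replicates at 75% or more, or half of them and the mean; inconclusive = half reach 75% but not the mean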;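 also: 0% = cytokine-treated negative control wells and 100% = positive control rescue; higher means more ATP so stronger rescue from cytokine killing; wells of about 40 µL received 100 nL stock; the first replicate is given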
T cruzi inh = inhibitors of intracellular T. cruzi growth, primary screen, luminescence, NIH3T3 host cells. T. cruzi beta-gal in NIH3T3, 90 h. inhibition, % (test concentration not listed). actives 1.4% (n = 300,000);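 active = mean inhibition across valid replicates above about 55%, limit read from the data; inconclusive = mean below that limit but half or more replicates reach it; inactive = mean below it, under half of replicates reach it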;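 also: signal also drops with host cell toxicity which is not excluded here; 0% = plate median of DMSO wells and 100% = zero luminescence signal; higher percent means less beta-gal luminescence so fewer parasites; stock transfer was 50 nL into about 50 µL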
Bfl-1 A1 inh = caspase 3/7 activation in MEF A1-2A-BIM cells, primary screen, A1 inhibitor project, cell-based, luminescence, HTS | caspase activation, % (test concentration not listed) | actives 0.066% (n = 330,000) | Caspase-Glo 3/7 luminescence, 3 h; percent of clofoctol response, vehicle zero | AID 2462, 2010;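 active = over half of replicate activation scores above 10%, or exactly half above 10 with the replicate mean above 10; inconclusive = replicate mean below 10 yet half the replicates above 10; inactive = over half of replicates below 10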;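 also: wells of about 30 µL received 50 nL stock; many hits fall short of the cut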
LANA-H2A inh = blockers of LANA interaction with H2A/H2B – biochemical, FP readout, HTS, primary screen | Protein LANA1 (Human herpesvirus 8 type P (isolate GK18)), Q9QR71 | cell-free LANA-H2A/H2B peptide, fluorescence polarization | inhibition, % (test concentration not listed) | actives 0.6% (n = 320,000); in the data active = inhibition mostly above about 10%, no sharp cut-off; inactive = mostly below about 6.7%;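 also: stock transfer was 7.5 nL into about 10 µL; 0% = median of vehicle wells and 100% = median of positive control wells; one replicate is shown; the record names a cut of 25% in any replicate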
RanGTP-Impb inh = inhibitors of RanGTP-importin-beta interaction, primary screen, biochemical, FRET, CFP-Ran, YFP-importin-beta, homogeneous; Ran GTPase (GTP-bound) - importin-beta complex; cell-free CFP-Ran/YFP-importin-beta FRET ratio; inhibition, % (no concentration beside the values); actives 1.1% (n = 300,000); AID 2216, 2009;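 active = most replicates above 15%; inconclusive = exactly half above 15%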;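 also: 0% = DMSO wells and 100% = Ran loaded with GDP instead of GTP; wells of about 40 µL received 100 nL stock; the first replicate is given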
Vif TR-FRET = inhibitors of Vif binding to APOBEC3G peptide, primary screen, biochemical, TR-FRET, GST-Vif 1-94, biotin-A3G peptide, dose response retest (AID 1117319); Virion infectivity factor (Human immunodeficiency virus type 1 group M subtype B (isolate …; TR-FRET GST-Vif / biotin-A3G peptide binding; higher % means a stronger effect; test concentration not given here; strong numbers were not always called active; one-dose inhibition, %; IC50 in µM for titrated hits; actives 0.57% (n = 260,000);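 active = above the screen mean plus three standard deviations and confirmed in dose response; inconclusive = results disagree or hit not tested in dose response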;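 also: Vif residues 1-94 fused to GST binding biotinylated APOBEC3G peptide 110-148; 0% = full assay without inhibitor and 100% = GST in place of GST-Vif; retest series ran down from 100 µM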
Numbers without * were called inactive; ? = inconclusive; . = not tested or not shown.

SMILES	AF4-AF9 inh	Calb FLC	Beta apoptosis	T cruzi inh	Bfl-1 A1 inh	LANA-H2A inh	RanGTP-Impb inh	Vif TR-FRET
Cc1nn(-c2nc3ccccc3[nH]2)c(N)c1-c1ccccc1	.	1	.	17	-8.1	1.4	-2.1	3%
CCCc1c(C(=O)N/N=C/c2ccccc2C(F)(F)F)nnn1-c1nonc1N	-1.0	3	10	13	-0.2	-2.1	3.7	1%
Cc1ccc2c(c1)N(C(=O)CCC(=O)NCCCN1CCN(C)CC1)CC(C)O2 (stereo not given)	-5.2	2	3	-12	-0.7	-7.4	-5.9	.
Nc1nonc1-c1nc2ccccc2n1Cc1ccc(Cl)cc1	.	-12	5	-2	0.3	-1.4	-1.6	0%
COc1ccccc1NS(=O)(=O)c1cc(NC(=O)C2CCCC2)ccc1N1CCOCC1	1.2	5	35	24	1.0	7.8	-2.3	?
Cc1c(C)c2ccc(OCC(=O)c3ccccc3)cc2oc1=O	-2.2	-4	3	3	-4.9	0.9	-0.5	-12%
Cn1nc(-c2ccc(Cl)cc2)nc2c(=O)n(C)c(=O)nc1-2	-1.6	71	99*	56*	-8.0	0.5	-16	1%
COc1ccc(-n2nc(C(=O)NCC(=O)NC3CCCCCC3)c3ccccc3c2=O)cc1OC	1.8	41	5	17	0.6	3.4	4.9	-148%
C/C(=N/NC(=O)CNC(=O)c1ccccn1)c1ccc([N+](=O)[O-])cc1	-0.1	2	-10	4	0.2	-2.5	1.7	23%
Cc1ccc(C)c(CN2C(=O)c3ccccc3S(=O)c3ccc(C(=O)NCCCN4CCCC4)cc32)c1 (stereo not given)	11	1	2	28	0.3	3.6	5.9	.
CCc1ccc(Oc2cc(Cl)nc(N)n2)cc1	.	2	5	-12	0.7	6.4	-1.6	-7%
COC(=O)c1sccc1NC(=O)CC1C(=O)NCCN1C(=O)c1ccc(C)c(C)c1 (stereo not given)	2.3	-5	-3	1	0.4	-4.1	1.7	-3%
O=C(Nc1ccc(S(=O)(=O)N2CCOCC2)cc1)c1cc(-c2ccccc2O)n[nH]1	0.9	0	-4	18	0.4	-5.8	?	-6%
CSCCC(C(=O)NCc1cccs1)N1C(=O)c2ccccc2C1=O (stereo not given)	.	-5	.	1	1.9	-0.5	-1.4	2%
COc1ccc(C2(C(=O)Nc3ccc(S(N)(=O)=O)cc3)CCCC2)cc1	-0.3	27	1	15	0.3	1.0	2.1	.
COCCCNC(=O)CN1C(=O)COc2ccc(S(=O)(=O)N3CCOCC3)cc21	-1.6	-4	.	-18	.	.	1.3	1%
Cc1cc(N2CCCC2=O)cc(C)c1S(=O)(=O)Nc1c(C)nn(C)c1C	-1.8	1	5	-27	-0.2	2.8	-0.8	.
COc1ccc(/C=C/C2=CC(C)(C)NC(=S)N2)c(OC)c1	5.9	-5	-7	28	0.0	-6.7	11	.
COc1ccc2c(c1)CCC/C2=N\NC(=O)c1ccoc1C	2.8	-17	-4	11	-0.8	0.9	1.0	-1%
COc1cccc(C(=O)N(C)c2nnc(-c3ccncc3)s2)c1	.	3	-6	-5	-0.4	-1.6	-1.4	1%
Cc1ccccc1-n1c(CSC(=N)N)nc2ccccc2c1=O	.	9	-6	15	0.6	-0.5	-2.5	27%
CCOC(=O)N1CCN(C(=O)c2oc3ccc(S(=O)(=O)N4CCCCCC4)cc3c2C)CC1	.	-5	8	65*	1.0	3.2	-3.1	-4%
Cc1c(NC(=S)NC(=O)CC(C)C)c(=O)n(-c2ccccc2)n1C	-1.5	0	-4	-9	-0.5	2.6	4.9	-2%
CCN(CC)CCCNC(=O)c1cc2c(=O)n(C)c3ccccc3c2n1C	2.5	13	6	-5	0.4	-3.5	0.6	0%
Cc1ccc(C(=O)NCC(=O)N(C)CC(=O)Nc2ccccc2Br)s1	-0.2	.	-1	.	2.5	2.9	.	-15%
CC(=O)C1=C(O)C(=O)N(c2ccc(S(=O)(=O)Nc3nccs3)cc2)C1c1ccc(F)cc1 (stereo not given)	-9.6	-3	0	0	0.9	5.0	4.2	-6%
Cc1cc(C)n2ncc(/C(N)=N/OC(=O)Nc3ccccc3)c2n1	.	-4	6	29	0.2	-2.6	4.0	.
O=C(Cc1ccccc1)Nc1ccc(NC(=O)c2ccco2)cc1Cl	3.4	21	-3	2	1.1	-2.4	-1.5	.
COc1ccc(S(=O)(=O)NCc2ccc(C(=O)N3CCc4ccccc4C3)cc2)cc1	-3.5	-3	0	12	-0.5	-3.7	1.3	1%
CC(=C/c1ccc(C(C)C)cc1)/C=N/NC(=O)Cn1nnnc1N	.	-5	6	-7	-0.3	7.0	?	2%
COc1ccc([C@H]2/C=C\CN(S(=O)(=O)c3ccc4ccccc4c3)[C@@H](C)C(=O)N2Cc2ccc(F)cc2)cc1	-2.2	3	10	59*	-0.4	0.3	0.2	.
O=C(N=Nc1c(O)[nH]c2ccc(Br)cc12)c1cc(-c2cccc3ccccc23)n[nH]1	1.7	17	3	42	0.1	2.3	-3.7	?
Cc1ccc(S(=O)(=O)N2CCOCC2)cc1NC(=O)CSc1cccc[n+]1[O-]	.	-4	-2	-16	0.0	-5.5	-0.1	.
COc1ccc(C(=O)Nc2ccccc2C(=O)NC(Cc2ccc(O)cc2)C(=O)NNC(=O)c2ccc(C)cc2)cc1 (stereo not given)	-12	-2	0	-18	1.8	5.2	3.2	-10%
CC(C)=CC(=O)O[C@H]1[C@@H]2[C@H](C)C(=O)O[C@@H]2C[C@@H](C)[C@@H]2[C@@H](O)CC(=O)[C@]21C	-9.0	-6	-4	17	0.2	-3.8	4.7	2%
CCOCC(=O)Nc1nc2ccccc2s1	-1.0	10	-5	-7	-4.1	-2.8	2.4	.
COC(=O)/C=C1\N/C(=N\c2nc(C)cc(C)n2)N(c2ccc(C)c(C)c2)C1=O	-7.2	2	-8	-1	-1.5	-3.8	4.7	.
O=S(=O)(NC1=NCCCCC1)c1cccs1	2.4	6	-7	-6	1.1	-2.9	2.4	28%
COc1ccc(C(=O)Nc2ccccc2-c2nnn(CC(=O)Nc3ccc4c(c3)OCCO4)n2)cc1	.	35	-2	16	-0.8	0.1	-0.4	3%
O=C(COC(=O)c1ccc(CO)cc1)NCc1cccs1	-10	0	-2	-21	-0.1	-0.9	-2.4	-1%
CN1CCN(C(=O)c2cc3c(n(-c4ccccc4)c2=O)CC(C)(C)CC3=O)CC1	.	9	-2	0	0.7	-1.2	2.2	-4%
C=C1C(C(=O)N2CCOCC2)C1C(=O)N1CCOCC1 (stereo not given)	-2.9	-8	-1	-15	-1.0	0.8	1.5	3%
CC/C(=N\NC(=O)c1nnn(-c2nonc2N)c1-c1ccc2c(c1)OCO2)c1ccccc1	-0.7	-8	2	-12	-0.1	0.2	2.0	.
Cc1cc(NS(=O)(=O)c2ccc(NC(=O)Nc3cccc(Cl)c3)cc2)no1	.	5	-4	5	-6.3	2.9	2.8	20%
CC1CN(S(=O)(=O)c2cccc(C(=O)NCc3ccco3)c2)CC(C)O1 (stereo not given)	2.4	.	-1	.	-0.6	-7.0	.	.
COc1ccc(/C=C(\C#N)C(=O)Nc2cc(S(=O)(=O)N3CCCCC3)ccc2N2CCCCC2)cc1	.	-1	6	2	-0.1	-2.7	2.0	-5%
Cc1cccc(C2c3[nH]c4ccccc4c3CCN2C(=O)c2noc3c2CCCC3)n1 (stereo not given)	9.4	61	6	-3	-0.1	-0.3	?	.
COc1ccccc1C(=O)NCC(=O)OC(C)C(=O)NC(=O)NC1CCCCC1 (stereo not given)	.	3	-8	5	0.6	4.7	0.7	-1%
N#CC1=C(N)Oc2cc(O)ccc2C1C1CCCCC1 (stereo not given)	.	3	20	-5	-0.3	-0.8	140*	4%
Cc1c(CC(=O)N2CCC(C(N)=O)CC2)c(=O)oc2cc3c(cc12)CCC1(CCCCC1)O3	2.8	2	.	11	-0.1	0.8	4.4	.
CCOC(=O)N1CCN(C(=O)CN(C)S(=O)(=O)c2ccc(OCC)cc2)CC1	-9.1	2	-5	-5	0.2	-3.8	4.3	.
Cc1ccc(C(=O)NCCSCc2ccccc2)cc1[N+](=O)[O-]	.	1	1	-2	-0.3	9.2	-0.8	2%
O=C(CCCC(=O)N(CC(=O)NC1CCCCC1)c1ccc(F)cc1)Nc1ccccn1	-7.4	-13	-6	11	0.2	0.4	-5.8	.
Nc1nc(Nc2ccccc2)nc(NCc2ccccc2)c1[N+](=O)[O-]	2.3	-3	7	13	0.3	3.9	2.3	3%
CCOC(=O)c1c(C)[nH]c(C)c1C(=O)CN1C(=O)NC2(CCC(C)CC2)C1=O (stereo not given)	.	-8	-9	3	-0.6	0.4	1.5	0%
COc1ccc(C(=O)NCc2nnc(SCC(=O)Nc3cc(C)on3)o2)cc1OC	-0.1	2	-1	-15	0.0	2.6	-0.3	14%
CCOC(=O)c1cc(-c2ccc(OC(F)F)cc2)nc2nc(SC)[nH]c(=O)c12	-4.8	?	-1	1	0.5	-8.7	?	3%
Cc1csc(CN(C)C(=O)CC2C(=O)NCCN2Cc2ccc(-c3ccccc3)cc2)n1 (stereo not given)	1.9	-5	1	-1	0.4	3.8	-0.1	-1%
Cc1ccc2c(c1)c1ncnc(N3CCN(c4ccccc4)CC3)c1n2C	.	.	-10	.	0.1	-4.3	.	-8%
CCCc1[nH]nc2c1C(C1CCCCC1)C(C#N)=C(N)O2 (stereo not given)	-3.9	-1	-11	8	0.5	1.3	-2.7	-4%

Following part
SMILES	AF4-AF9 inh	Calb FLC	Beta apoptosis	T cruzi inh	Bfl-1 A1 inh	LANA-H2A inh	RanGTP-Impb inh	Vif TR-FRET
Cc1c(C(=O)OC(C)C)sc(NC(=O)c2cccnc2)c1C#N	.	-2	27	-1	0.3	-3.3	1.2	23%
CC(C)C(c1nnnn1C1CCCCC1)N1CCOCC1 (stereo not given)	.	-5	-2	-11	0.0	19*	0.0	3%
COc1ccc(CC(=O)OCN2C(=O)c3ccccc3C2=O)cc1OC	-1.4	-8	-2	-22	-0.1	-45	1.2	.
CCOC(=O)c1cnc(-n2nc(C)cc2C)nc1NC1CCCC1	0.5	-8	97*	52	-0.4	-3.8	3.6	8%
CC1(c2ccc3c(c2)OCO3)NC(=O)N(CC(=O)c2ccc[nH]2)C1=O (stereo not given)	2.6	4	-3	-3	-1.0	-2.9	-2.4	3%
Cn1c2c(c(=O)n(C)c1=O)C1c3ccccc3OCC1C(C)(C)O2 (stereo not given)	7.1	2	2	8	0.2	1.8	?	31%
Cc1ccc(-n2c(C)cc(C(=O)COC(=O)c3ccc[nH]c3=O)c2C)cc1	.	-23	-1	-5	?	2.7	2.2	.
